# Ecoli growth = E. coli growth inhibition, primary screen, OD600; Escherichia coli growth, 23 h; hits give low values; OD600 absorbance (no concentration beside the values); 330,000 compounds, 0.21% hits; AID 1053175, 2014;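 active = OD600 absorbance below the run mean of sample wells minus 3.6 SD, in any replicate, cut at about 0.56 in these data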;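 note: stock transfer was 300 nL into about 60 µL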
# HNF4A DNA FP = change in binding of human HNF4A to DNA, primary screen, biochemical, fluorescence polarization, FITC-DNA; Hepatocyte nuclear factor 4-alpha (Homo sapiens), P41235; 1 h; activity change, % at 10 µM; 360,000 compounds, 0.3% hits; AID 1224865, 2016; in the data active = activity change above about 30%, passing the limit was not always enough;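 note: controls were the assay level and a saturating level of protein; the project sought stronger binding though the title names inhibitors; some compounds called inactive have numbers as strong as hits; positive values seem to mean higher polarization but the record does not say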
# ALR H2O2 inh = inhibitors of human ALR sulfhydryl oxidase, primary screen, biochemical, H2O2 detection, HRP-luminol luminescence, single point; FAD-linked sulfhydryl oxidase ALR (Homo sapiens), P55789; purified ALR, DTT oxidation; inhibition, % (no concentration beside the values); 290,000 compounds, 3.8% hits; AID 485317, 2010;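 active = mean and each replicate at 75% or more; inconclusive = only one of the two met; inactive = neither met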;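 note: stock transfer was 7.5 nL into about 7.5 µL; 0% = neutral wells and 100% = wells with inactivated enzyme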
# Target sequence (P55789 whole entry, looked up): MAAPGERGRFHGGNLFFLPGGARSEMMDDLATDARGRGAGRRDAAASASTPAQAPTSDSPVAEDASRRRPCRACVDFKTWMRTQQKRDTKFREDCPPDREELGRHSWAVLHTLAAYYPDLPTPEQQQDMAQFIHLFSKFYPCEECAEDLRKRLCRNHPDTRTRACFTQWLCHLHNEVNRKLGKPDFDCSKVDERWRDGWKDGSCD
# MLL AF4-AF9 inh = inhibitors of AF4 peptide binding to AF9, primary screen, biochemical, AlphaScreen, biotin-AF4 peptide, FLAG-AF9, single point; AID 651704, 2012; inhibition, % at 10 µM; 350,000 compounds, 0.47% hits;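 active = every replicate reaching a set inhibition limit, whatever the replicate mean, cut at about 25% in these data; inconclusive = mean inhibition reaches that limit but some replicates miss it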;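 note: 0% = plate neutral control median and 100% = total signal loss; the record names both 10 and 1 µM as test concentration; the first replicate is given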
# Target sequence (P42568 whole entry, looked up): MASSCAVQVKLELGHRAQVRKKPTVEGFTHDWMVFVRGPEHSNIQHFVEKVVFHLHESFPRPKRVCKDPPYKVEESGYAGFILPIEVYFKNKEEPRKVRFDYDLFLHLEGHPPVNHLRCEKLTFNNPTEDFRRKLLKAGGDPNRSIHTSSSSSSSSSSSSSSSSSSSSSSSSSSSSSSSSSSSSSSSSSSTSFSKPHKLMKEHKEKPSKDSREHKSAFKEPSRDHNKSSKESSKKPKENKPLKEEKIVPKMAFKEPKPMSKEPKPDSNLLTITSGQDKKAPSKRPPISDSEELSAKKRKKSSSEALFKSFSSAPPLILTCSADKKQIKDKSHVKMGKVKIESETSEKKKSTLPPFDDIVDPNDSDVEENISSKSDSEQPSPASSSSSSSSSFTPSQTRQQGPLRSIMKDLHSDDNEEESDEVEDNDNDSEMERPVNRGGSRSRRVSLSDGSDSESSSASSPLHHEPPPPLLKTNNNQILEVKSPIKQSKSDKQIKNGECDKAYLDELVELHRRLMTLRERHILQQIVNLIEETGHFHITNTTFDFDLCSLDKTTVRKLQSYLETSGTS
# rRNA inh HTS = reduced GFP signal of wild-type E. coli, primary screen, bacterial rRNA inhibitor project, GFP/RFP fluorescence, OD600, single point; E. coli WT GFP vs humanized-ribosome RFP mutants, 24 h; hits give low values; DMSO median 0, no signal -100; GFP signal change (wild-type ribosome), % (no concentration beside the values); 350,000 compounds, 1.6% hits;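 active = significant combined selectivity score with lowered wild-type GFP, culture density cut under 30%, mutant RFP and density less affected; inactive = any of these conditions unmet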; note: one replicate is shown; some compounds called inactive have numbers as strong as hits
# FGF22 binding = binders of human FGF22 protein, primary screen, FGF22 synaptogenesis inhibitor project, biophysical, thermal shift, single point | Fibroblast growth factor 22 (Homo sapiens), Q9HCT0 | 340,000 compounds, 1.5% hits | AID 651658, 2012 | recombinant FGF22 thermal shift, SYPRO orange fluorescence; percent of sucrose octasulfate shift, DMSO zero | calls only at 9.99 µM;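 active = melting point raised past a set limit in the mean and every replicate; inconclusive = no clear call; three in four hits are not shown here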
# Target sequence (Q9HCT0 whole entry, looked up): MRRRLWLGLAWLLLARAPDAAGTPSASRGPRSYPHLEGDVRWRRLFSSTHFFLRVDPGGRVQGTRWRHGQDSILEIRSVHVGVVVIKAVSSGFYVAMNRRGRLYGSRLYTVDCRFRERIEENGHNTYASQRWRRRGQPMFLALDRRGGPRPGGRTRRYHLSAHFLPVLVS
# Vif TR-FRET = inhibitors of Vif binding to APOBEC3G peptide, primary screen, biochemical, TR-FRET, GST-Vif 1-94, biotin-A3G peptide, dose response retest (AID 1117319). TR-FRET GST-Vif / biotin-A3G peptide binding; higher % means a stronger effect; test concentration not given here; strong numbers were not always called active. inhibition, %, or IC50 in µM where a hit was titrated. 260,000 compounds, 0.57% hits;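 active = above the screen mean plus three standard deviations and confirmed in dose response; inconclusive = results disagree or hit not tested in dose response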;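 note: Vif residues 1-94 fused to GST binding biotinylated APOBEC3G peptide 110-148; 0% = full assay without inhibitor and 100% = GST in place of GST-Vif; retest series ran down from 100 µM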
# rRNA inh HTS OD600 = also measured in rRNA inh HTS; calls as there; OD600 change, %; measured here: OD600 growth;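 optical density of the mix in the first replicate; 0 = DMSO median and -100 = no signal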
# rRNA inh HTS RFP = second read-out of rRNA inh HTS, no call of its own (marks repeat the call); RFP signal change, %; measured here: RFP humanized mutant strains;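 first replicate; 0 = DMSO median and -100 = no signal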
# * hit, by the source's call; i = inactive; ? = inconclusive; / = not tested or not shown. The list is partial, so the mix of outcomes need not match the whole.
SMILES,Ecoli growth,HNF4A DNA FP,ALR H2O2 inh,MLL AF4-AF9 inh,rRNA inh HTS,rRNA inh HTS OD600,rRNA inh HTS RFP,FGF22 binding,Vif TR-FRET
O=C(Cc1ccccc1[N+](=O)[O-])NCCCc1ccccc1,0.645,0.0,-0.5,-1.3,3.5,4.4,-4.4,i,/
CCS(=O)c1ccccc1C(=O)OCC(=O)Nc1cccc(S(=O)(=O)N2CCCCC2)c1 (centres undefined),0.692,-2.0,/,-2.8,-10.0,-11.6,3.8,i,6.0%
CCC(=O)N(C)C[C@@H]1Oc2cc(C#C[C@H](C)O)ccc2S(=O)(=O)N([C@@H](C)CO)C[C@@H]1C,/,/,/,-1.7,0.0,6.5,1.5,i,/
CCCCn1c(-c2ccccc2)nc2c(=O)n(C)c(=O)[nH]c21,0.709,-0.9,39.1,/,/,/,/,/,?
CC=Cc1ccc2n(c1=O)C[C@@H]1[C@@H](CO)[C@H](C(=O)N[C@H](C)c3ccccc3)[C@H]2N1Cc1cccnc1 (mixture of isomers),/,/,/,1.1,1.5,4.5,-0.4,i,/
CCC(=O)Nc1ccc2c(c1)C(=O)N(C)C[C@@H](OC)[C@H](C)CN(Cc1ccccc1)[C@@H](C)CO2,/,/,/,0.1,-3.3,-9.4,-0.5,i,/
Cc1ccc(NC(=O)Cc2c(Cl)cccc2Cl)cc1S(=O)(=O)N(C)C,0.668,1.2,-4.6,/,/,/,/,/,19.5%
CCOC(=O)N1CCN(C(=O)C2CCN(S(=O)(=O)c3ccc(NC(C)=O)cc3)CC2)CC1,0.704,-0.4,5.0,-1.1,6.2,13.4,3.1,i,/
CC(C)(C)NC(=O)C(=O)NNC(=O)C12CC3CC(CC(C3)C1)C2,0.707,-5.6,-0.1,/,/,/,/,/,4.3%
C[C@@H](NC(=O)C[C@H]1C[C@H]2c3cc(NC(=O)CC4CC4)ccc3O[C@H]2[C@H](CO)O1)c1ccccc1,/,/,/,-1.1,-0.2,-2.7,0.0,i,/
C[C@H]1CN([C@@H](C)CO)S(=O)(=O)c2ccc(C#Cc3cccc(F)c3)cc2O[C@@H]1CN(C)S(=O)(=O)c1cn(C)cn1,/,/,/,0.6,-5.2,-9.2,3.6,i,/
CCCS(=O)(=O)NC(=O)C1(C)CCN(C(=O)c2cc(C)n(C(C)(C)C)n2)C1 (centres undefined),/,-3.5,/,-1.7,9.9,13.3,3.9,i,/
CCc1ccccc1N(C(C)=O)c1nc(CCl)cs1,0.71,-0.2,2.8,0.5,2.0,1.6,-8.2,i,22.6%
C=CCN1[C@@H](C)[C@H](c2ccccc2)Oc2cccc(N3CCCC3)c2S1(=O)=O,/,/,/,2.1,9.1,11.4,5.2,i,/
CC(C)(C)n1nnnc1C(c1cccs1)N(Cc1ccccc1)Cc1ccco1 (centres undefined),0.776,2.3,-1.9,/,-4.2,-16.6,-3.2,/,1.4%
O=C(c1cccc(Cl)c1)N1CCC2CC1c1cc(N3CCOCC3)ccc12 (centres undefined),/,1.1,/,4.8,-4.5,-9.5,-1.4,i,/
COc1ccccc1N1CCN(/N=C\c2ccccc2)CC1,/,-2.1,22.5,14.5,7.5,8.9,0.6,i,/
CCN(CC)c1ccc(N=CN2CCOCC2)cc1,0.637,4.1,98.4*,19.8,6.9,12.7,-0.2,i,/
CN(C)c1ccc(CNC(=O)CCc2ccc(S(=O)(=O)N3CCCCCC3)cc2)cc1,0.626,-3.6,/,5.5,-10.8,-18.0,3.4,i,-0.7%
O=C(N/N=C\c1cccs1)c1ccccc1-n1cccc1,/,-2.1,1.4,0.1,7.8,-1.1,1.8,i,-1.6%
C=CCn1c(SCc2cccc(F)c2)nc2cc(C(=O)N3CCC(C(N)=O)CC3)ccc2c1=O,0.705,2.0,82.8*,7.9,-1.5,4.0,-1.7,i,12.0%
c1ccc2c(Nc3nnc(-c4ccncc4)s3)cccc2c1,0.698,-2.3,0.3,/,/,/,/,/,19.5%
CCOCCc1nnc(NC(=O)COC)s1,0.731,-1.0,-1.7,3.6,7.8,3.0,-0.1,i,5.6%
CN(C)Cc1ccccc1C(O)(c1ccccc1)c1ccccc1,0.654,-3.8,-1.3,-1.8,5.7,7.8,-2.4,i,/
CCCCCC1CC(=O)C=C(C)C1C(=O)OC (centres undefined),0.654,-1.3,-6.9,/,6.5,8.4,2.6,i,1.9%

# Later entries:
SMILES,Ecoli growth,HNF4A DNA FP,ALR H2O2 inh,MLL AF4-AF9 inh,rRNA inh HTS,rRNA inh HTS OD600,rRNA inh HTS RFP,FGF22 binding,Vif TR-FRET
CCOc1ccccc1-c1ccc2nccn2c1,/,3.2,/,0.2,0.0,-0.1,0.3,i,/
COC(=O)c1ccc(COc2ccc(F)cc2)o1,0.669,-3.3,-10.3,-1.4,5.6,-3.3,-2.4,i,-1.4%
C[C@H]1CN([C@@H](C)CO)C(=O)c2cc(NC(=O)CCCCCC(=O)Nc3ccccc3N)ccc2O[C@@H]1CN(C)S(=O)(=O)c1ccc(F)cc1,/,/,/,-2.0,-0.6,0.0,1.4,i,/
COC(=O)c1ccc(C(=O)OC)c(NC(=S)N2CCC(C(N)=O)CC2)c1,0.698,-4.3,/,-0.6,25.9,10.2,2.3,/,-6.4%
CC(C)(C)[C@@H]1C=C(C(=O)Nc2ccccc2)O[C@H](OCc2ccc(CO)cc2)C1,/,10.7,/,1.3,-6.1,-8.8,9.7,i,/
COc1ccccc1CNC(=O)CSc1nc2ccccc2c(=O)n1CCCN1CCOCC1,0.694,-5.9,-24.8,1.4,-1.7,-2.0,3.5,i,-7.1%
CC(C)NC(=O)C1C(c2ccccc2)=Nc2ccccc2N1C(=O)c1cc(Cl)cc(Cl)c1 (centres undefined),/,-2.1,/,2.7,7.3,3.5,-1.3,i,/
CS(=O)(=O)Nc1ccc2c(c1)[C@H]1C[C@@H](CC(=O)NCC(F)(F)F)O[C@H](CO)[C@H]1O2,/,/,/,-9.3,4.6,4.7,-1.9,i,/
O=C(c1ccc2ncsc2c1)N1CCCCC1,0.744,3.4,-7.1,-4.6,14.5,13.7,-0.9,i,-10.4%
Cc1cc(O)ccc1Nc1nc(-c2cccs2)cs1,0.68,3.9,87.9*,13.4,-14.1,-15.5,4.7,i,7.8%
ON=C1c2ccccc2-c2ccc(O)cc21,/,1.2,/,3.1,/,/,/,i,-2.8%
CCS(=O)(=O)N1CCC(C(=O)NCCCN2CCCCCC2)CC1,0.659,19.1,-4.9,5.6,2.6,8.8,-0.4,i,-0.2%
O=C(CN1CCN(c2ccc(O)cc2)CC1)N1CCc2ccccc21,0.641,-5.4,80.1*,-6.3,/,/,/,i,/
COc1cc(OC)c(S(=O)(=O)Nc2ccccc2N2CCCCC2)cc1NC(C)=O,0.725,0.4,34.9,-29.0,-5.2,-4.2,-1.7,i,11.3%
COCCCn1c(Cc2csc(Nc3ccccc3)n2)nnc1SCC(N)=O,0.667,1.2,55.9,/,/,/,/,/,0.7%
Cc1ccc(S(=O)(=O)N(C)C[C@H]2Oc3ccc(NC(=O)Nc4ccccc4)cc3CC(=O)N([C@H](C)CO)C[C@@H]2C)cc1,/,/,/,4.2,1.8,8.3,6.0,i,/
O=C(NC(CSSCC(NC(=O)c1ccccc1)C(=O)O)C(=O)O)c1ccccc1 (centres undefined),0.727,3.2,0.0,-3.7,17.0,8.0,-3.5,i,-3.0%
COc1ccccc1C(=O)NCC(=O)N1CCN(S(=O)(=O)c2ccc3c(c2)OCCO3)CC1,0.651,0.6,-47.1,-6.3,-2.4,-3.4,0.2,i,-1.7%
COc1ccc(S(=O)(=O)N2CCC3(CC2)CC(=O)c2ccccc2O3)cc1,0.646,-0.6,-2.0,2.7,11.3,6.0,-1.0,i,-1.4%
CCOc1ccccc1OCC(=O)Nc1nnc(C)s1,0.7,-0.1,1.0,/,/,/,/,/,28.8%
C[C@@H]1CN([C@@H](C)CO)C(=O)c2cc(NC(=O)Nc3ccc(C(F)(F)F)cc3)ccc2O[C@@H]1CN(C)S(=O)(=O)c1cn(C)cn1,/,/,/,1.6,-2.3,-10.7,2.1,i,/
Cc1nc2ccc(Br)cn2c1C(=O)N/N=C\c1ccc(C(C)C)cc1,/,0.2,-3.4,-3.5,5.8,5.0,0.0,i,-6.8%
COc1cccc(/C(O)=C2\C(=O)C(=O)N(c3ccccn3)C2c2cccc(OC)c2OC)c1 (centres undefined),0.728,0.0,?,/,/,/,/,/,0.5%
Cc1cccc(N2CCN(C(=O)c3cc4c(=O)[nH]c5ccccc5c4n3C)CC2)c1C,0.709,-1.4,1.1,/,/,/,/,/,/
CCc1nc2c(OCc3cccc(Cl)c3)cccn2c1N(C)C(=O)c1ccncc1,/,2.1,/,-3.3,0.9,5.4,-2.1,i,/

# (next part)
SMILES,Ecoli growth,HNF4A DNA FP,ALR H2O2 inh,MLL AF4-AF9 inh,rRNA inh HTS,rRNA inh HTS OD600,rRNA inh HTS RFP,FGF22 binding,Vif TR-FRET
O=S(=O)(N[C@H]1CC[C@H](CCn2cc(-c3ccccn3)nn2)O[C@H]1CO)c1cccc(Cl)c1,/,/,/,1.7,-0.5,-2.4,-3.3,i,/
COC(=O)c1ccc(NC(=O)CN2CCCC2)cc1,0.715,2.0,-3.5,/,/,/,/,/,72.6%
Cc1ccc(S(=O)(=O)N/N=C2/CC(c3ccccc3)Oc3ccccc32)cc1 (centres undefined),/,-0.1,1.6,/,/,/,/,/,-9.4%
COc1cc(NC(=O)c2cccnc2SC)cc(OC)c1,0.694,-3.3,-7.3,-0.9,-0.9,-1.4,-0.4,i,2.3%
O=C(Cc1coc2ccc3ccccc3c12)NC1CCCc2ccccc21 (centres undefined),0.727,3.1,/,2.4,-17.9,-23.6,-3.7,i,6.4%
C[C@H]1CCCCO[C@@H](CN(C)C(=O)Nc2ccc(F)cc2)[C@@H](C)CN([C@@H](C)CO)C(=O)c2cc(NS(=O)(=O)c3cn(C)cn3)ccc2O1,/,/,/,0.2,-3.7,1.1,2.6,i,/
CC(C)c1cn(CC[C@H]2CC[C@@H](NS(=O)(=O)c3ccccc3)[C@H](CO)O2)nn1,/,/,/,-2.9,0.9,-3.1,0.2,i,/
Cc1ccc(S(=O)(=O)NCC[C@H]2CC[C@H](NC(=O)C3CCOCC3)[C@@H](CO)O2)cc1,/,/,/,0.3,-0.7,-2.3,-0.9,i,/
CC(=O)Nc1ccc(NC(=O)CCNS(=O)(=O)c2cccc3nsnc23)cc1,0.661,-1.8,-9.9,/,/,/,/,/,-17.1%
COc1cccc(CN2CCN(Cc3ccc(C)o3)CC2CCO)c1 (centres undefined),0.691,-2.1,/,1.6,15.8,6.7,-0.3,i,24.2%
CCNC(=O)C[C@@H]1CC[C@@H]2[C@H](COc3ccc(NC(=O)Cc4ccccc4)cc3C(=O)N2C)O1,/,/,/,-0.7,3.8,4.1,-1.9,i,/
CC(C)CCOc1ccc(C(=O)Nc2cc(S(=O)(=O)N3CCOCC3)ccc2N2CCOCC2)cc1,/,2.7,/,1.3,-2.1,-2.1,0.1,i,-4.0%
COc1ccc(S(=O)(=O)Nc2cccc3c2O[C@H](CN(C)S(=O)(=O)c2ccc(F)cc2)[C@H](C)CN([C@H](C)CO)C3=O)cc1,0.768,-1.3,-5.1,-0.1,2.2,6.5,-0.7,i,/

# Screens deposited in PubChem by several laboratories.
